YopH inh: inhibitors of Yersinia enterocolitica YopH tyrosine phosphatase; fluorescence Ex485/Em525; inhibition, %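 (about 10 µM by stock and volumes)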; hit rate 0.16% among 140,000; AID 898;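 active = inhibition of 50% or more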;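 note: controls were vehicle for no effect and minimum signal wells for full effect; inactives centre near -20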
Mtb growth: M. tuberculosis H37Rv growth inhibitors, H37Rv strain (AID 1626) | hit rate 0.95% among 220,000 | inhibition, % at 10 µM; hits with a dose series show IC50 in µM | M. tuberculosis H37Rv growth inhibition; higher % means a stronger effect;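 active = confirmed in a dose series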;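 note: bacteria incubated seven days before Alamar blue readout; 0% = bacteria only wells and 100% = bacteria with antibiotic wells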
RecA intein inh: inhibitors of M. tuberculosis RecA intein splicing; inhibition, %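 (about 9 µM by stock and volumes)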; cell-free RecA intein splicing, fluorescence; AID 2221; hit rate 0.75% among 290,000; in the data active = inhibition above about 30%;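 note: 0% = vehicle wells and 100% = reference inhibitor control wells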
Target sequence (P9WHJ3 whole entry, looked up): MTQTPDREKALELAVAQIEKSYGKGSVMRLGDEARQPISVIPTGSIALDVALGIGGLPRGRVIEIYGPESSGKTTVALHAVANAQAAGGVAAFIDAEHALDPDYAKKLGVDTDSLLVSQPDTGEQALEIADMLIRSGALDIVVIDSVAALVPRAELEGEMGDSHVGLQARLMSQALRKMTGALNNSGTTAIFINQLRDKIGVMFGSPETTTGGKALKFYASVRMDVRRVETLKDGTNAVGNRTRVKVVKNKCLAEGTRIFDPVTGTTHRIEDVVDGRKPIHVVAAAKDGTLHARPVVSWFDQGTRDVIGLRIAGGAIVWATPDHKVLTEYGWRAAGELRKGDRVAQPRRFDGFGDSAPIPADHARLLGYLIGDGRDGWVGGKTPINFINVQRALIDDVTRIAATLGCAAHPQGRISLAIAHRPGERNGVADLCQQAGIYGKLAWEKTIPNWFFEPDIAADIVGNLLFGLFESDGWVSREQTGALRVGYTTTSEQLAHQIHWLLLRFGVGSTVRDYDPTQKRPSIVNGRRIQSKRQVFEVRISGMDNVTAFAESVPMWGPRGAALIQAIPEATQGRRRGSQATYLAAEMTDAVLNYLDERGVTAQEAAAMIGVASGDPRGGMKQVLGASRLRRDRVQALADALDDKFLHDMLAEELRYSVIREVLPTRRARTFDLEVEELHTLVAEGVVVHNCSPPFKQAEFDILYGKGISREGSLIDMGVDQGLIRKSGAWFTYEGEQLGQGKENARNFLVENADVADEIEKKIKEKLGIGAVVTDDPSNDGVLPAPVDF
Mtb bLac sens: beta-lactam sensitization of Mtb H37Rv | M. tuberculosis H37Rv growth with meropenem, percent inhibition; hits of this screen are not shown here | inhibition, % at 25 µM | hit rate 0.27% among 330,000;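 active = about 74% or more and at least 40 points above the plate without the antibiotic, then above 30% in a dose series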;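 note: growth measured after seven days incubation then overnight dye step; 0% = bacteria only wells and 100% = bacteria with antibiotic; twin plates without the antibiotic show which effects depend on it; some results filed as inactive read as strong as hits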
Arbovirus anti: arbovirus infection inhibition. arbovirus infection cell-based antiviral screen. inhibition, % at 10 µM. hit rate 0.37% among 200,000. AID 1251;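 active = inhibition from about 30%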;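 note: bluetongue infection of BSR cells; cell survival read as ATP light after 72 h; 0% = infected wells without compound and 100% = uninfected wells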
Arbovirus anti repeat: further read-out of Arbovirus anti, marked with its call; inhibition, %; measured here: 10K subset replicate screen; many hits read low in the repeat;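 first of two repeat runs on a subset; 0% = infected and 100% = uninfected wells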
Active calls of the source: *; x = no result given; & = joins results of further samples.

SMILES | YopH inh | Mtb growth | RecA intein inh | Mtb bLac sens | Arbovirus anti | others
C=CCn1c(COc2ccccc2OC)nc2ccccc21 | x | x | -0.1 | 4 | x
CC1CCN(c2c(NCc3ccc(C(=O)NCc4ccccc4)cc3)c(=O)c2=O)CC1 | x | -4% | 1.5 | 2 | x
CCn1c(COc2ccccc2)nnc1SCC(=O)NC1CCCCC1 | -40 | -14% | -1.3 | 3 | -10
Cc1cccc(NC(=S)N2CCC(c3nc4ccccc4o3)CC2)c1C | -49 | 1% | 3.2 | 0 | -1
Cc1sc2nc(COC(=O)c3ccc(Cl)c(N)c3)[nH]c(=O)c2c1C | x | -4% | -2.9 | 3 | x
CN1C2CCC1CC(OC(=O)c1ccc(Cl)cc1)C2 (centres undefined) | 2 | 0% | -2.4 | -6 | -10
COC(=O)Cn1cnc2c(C#N)c3n(c2c1=O)CCCCC3 | 1 | 0% | 2.7 | -15 | 7
CC(=O)NCCOC(=O)Nc1ccncc1 | -5 | -4% | -1.2 | -12 | 9 | Arbovirus anti repeat=1
O=C(OC1CCCCC1=O)c1cccc(S(=O)(=O)N2CCOCC2)c1 (centres undefined) | x | x | -11 | -2 | x
CCN1CC(CN(C)Cc2cn(-c3ccc(C)cc3)nc2-c2ccc(F)cc2)CC1=O (centres undefined) | x | -7% | 0.8 | 2 | 2
Cc1ccc(S(=O)(=O)N2CCCOC2CNC(=O)C(=O)NCc2ccncc2)cc1 (centres undefined) | -12 | 6% | -3.0 | 8 | 0
O=C(CC12CC3CC(CC(C3)C1)C2)NCc1ccccc1 | x | x | -1.5 | 5 | x
COc1cc(-c2nc(Cc3ccccc3Cl)no2)cc(OC)c1OC | -52 | -2% | 13 | 59 | 0
S=c1[nH]ccn1-c1ccccc1Cl | x | -4%&-4% | 0.6 | -7 | x
COC(=O)c1cc(S(=O)(=O)NCC2CCN(Cc3ccc(C)cc3)CC2)c[nH]1 | x | x | 0.1 | -1 | x
Fc1ccccc1OCCCN1CCOCC1 | -50 | 9% | -0.9 | 7 | 8
Cc1sc(NC(=O)c2ccco2)c(C(=O)c2ccc(Cl)cc2)c1C | -12 | 4% | -0.9 | 3 | -11
C=CCn1c(SCC(=O)NC(=O)NCCC)nnc1C1CCCCC1 | -35 | -7% | -2.9 | -4 | 6
CCOC(=O)c1c(NC(=O)C2C3C=CC(C3)C2C(=O)O)sc2c1CC(C)(C)OC2 (centres undefined) | x | -5% | -0.4 | 4 | 2
CN(c1ccccc1)S(=O)(=O)c1cccc(NC(=O)CN2CCCc3ccccc32)c1 | x | 1% | 4.5 | -4 | x
COCCSc1ccccc1C(=O)Nc1nnc(COC)s1 | -12 | 1% | 1.9 | 20 | 14
COc1cc(CNc2ccc3[nH]c(=O)[nH]c3c2)ccc1OCc1ccc(F)cc1Cl | x | x | -4.7 | -6 | x
COc1ccc(-n2c(CCC(=O)O)ccc2-c2ccc(F)cc2)c(OC)c1 | x | x | 1.2 | -4 | x
CC(C)(C)OC(=O)[C@H](Cc1ccccc1)NC(=O)c1[nH]cnc1C(=O)Nc1ccc(Cl)cc1 | x | 24% | 3.2 | 2 | x
Cc1ccc(N(Cc2ccccc2)C(=O)c2ccc(S(=O)(=O)N3CCOCC3)cc2)cc1 | x | x | 3.9 | -16 | x
O=C(Nc1ccc(F)cc1)C1CC(=O)n2c(nc3ccccc32)N1 (centres undefined) | -13 | 4% | -2.4 | 1 | 3
Cn1c(SCC(=O)NNC(=O)Nc2ccc(Cl)cc2)nnc1-c1ccccc1 | x | -5% | -1.6 | -10 | x
COCCN(C(=O)c1cccc(N2C(=O)CCC2=O)c1)c1nc(-c2ccc([N+](=O)[O-])cc2)cs1 | x | x | 7.4 | 3 | x
Cc1ccc(-c2nc(C(=O)NCCCN(C)C)cc3c2[nH]c2ccccc23)cc1 | x | x | 2.3 | 82 | x
O=C(C1CCN(S(=O)(=O)c2ccc(Cl)cc2)CC1)N1CCCCCCC1 | x | x | 2.5 | -5 | x
c1ccc(CCCNc2ncccn2)cc1 | -30 | 1% | -0.4 | -5 | -6
O=C(NCC1(N2CCOCC2)CCCCC1)c1cccc(S(=O)(=O)N2CCc3ccccc3C2)c1 | x | -1% | 1.1 | -7 | -14
COc1cccc(C2CC(c3cccs3)=NN2C(=O)c2ccco2)c1O (centres undefined) | x | x | 11 | -12 | x
COc1ccc(CSc2nnc3[nH]c(=O)cc(N)n23)cc1 | x | 3% | 3.4 | -8 | 3
O=C(N(Cc1ccccc1)c1ccccn1)C12CC3CC(CC(C3)C1)C2 | -11 | 7% | 6.3 | 4 | -1
Cc1nc(S(=O)(=O)c2ccc(Br)cc2)nc2c1CCC2 | x | 5% | 0.4 | -1 | 2

Next section, starting with the last 7 of the part before.
SMILES | YopH inh | Mtb growth | RecA intein inh | Mtb bLac sens | Arbovirus anti | others
O=C(C1CCN(S(=O)(=O)c2ccc(Cl)cc2)CC1)N1CCCCCCC1 | x | x | 2.5 | -5 | x
c1ccc(CCCNc2ncccn2)cc1 | -30 | 1% | -0.4 | -5 | -6
O=C(NCC1(N2CCOCC2)CCCCC1)c1cccc(S(=O)(=O)N2CCc3ccccc3C2)c1 | x | -1% | 1.1 | -7 | -14
COc1cccc(C2CC(c3cccs3)=NN2C(=O)c2ccco2)c1O (centres undefined) | x | x | 11 | -12 | x
COc1ccc(CSc2nnc3[nH]c(=O)cc(N)n23)cc1 | x | 3% | 3.4 | -8 | 3
O=C(N(Cc1ccccc1)c1ccccn1)C12CC3CC(CC(C3)C1)C2 | -11 | 7% | 6.3 | 4 | -1
Cc1nc(S(=O)(=O)c2ccc(Br)cc2)nc2c1CCC2 | x | 5% | 0.4 | -1 | 2
C=CC(=O)NC(NC(=O)C=C)c1ccc(Br)cc1 | -17 | -10% | 4.1 | 4 | 4
Cc1cc(C)n(-c2ccc(F)cc2CN2CCN(Cc3ccccc3)C(CCO)C2)n1 (centres undefined) | x | -1% | -0.1 | 0 | 5
CN(Cc1ccccc1)C(=O)COC(=O)COc1ccc(C#N)cc1 | x | x | 1.6 | 0 | x
Cc1ccc2c(c1)C1CN(C)CCC1N2C(=O)c1ccc(Cl)c(S(=O)(=O)N2CCOCC2)c1 (centres undefined) | x | -7% | 3.3 | 17 | 4
COC(=O)c1cc(S(=O)(=O)NCC2CCN(CCc3cccs3)CC2)cn1C | x | x | 0.2 | -4 | x
Cc1nn(CCc2n[nH]c(=S)n2-c2cccc(Cl)c2)c(C)c1[N+](=O)[O-] | -17 | -4% | -2.1 | -9 | 0
Cc1cc2c(c(=O)n1CCCn1ccnc1)C(c1ccco1)C(C#N)=C(N)O2 (centres undefined) | -25 | -9% | -0.5 | 4 | -8
CCn1c(=O)n(CC)c2cc([N+](=O)[O-])c(N3CCNCC3)cc21 | x | -1% | -0.1 | 0 | -5
COCCn1c(C)cc(C(=O)COC(=O)CCS(=O)(=O)c2ccc(C)cc2)c1C | x | x | 0.3 | -3 | x
CCCCCN(C(=O)NC(=O)NC(C)CC)S(C)(=O)=O (centres undefined) | -22 | -2% | 0.4 | -4 | 1
CCCc1cc(=O)oc2cc(OCC(=O)NCCCN3CCOCC3)c(Cl)cc12 | x | x | -7.0 | 4 | x
CC(=O)c1c(C)[nH]c(C(=O)OCc2ccc(Br)cc2)c1C | x | 73% | -2.0 | 3 | 4
CC(=O)N1c2ccc(S(=O)(=O)NCC3CCC(C(=O)Nc4ncccc4C)CC3)cc2CC1C (centres undefined) | x | x | 0.6 | -1 | x
CCC(=O)Nc1ccc2c(c1)nc(CCNC(=O)c1ccco1)n2C | x | x | -18 | -3 | x
Cc1ccc(-c2nc3ccccc3o2)cc1NC(=O)Cc1cccs1 | -7 | 6% | -4.4 | -9 | -22
Cc1cccc(N(C)S(=O)(=O)c2cccc3nsnc23)c1 | -12 | -2% | 1.8 | 0 | -1 | Arbovirus anti repeat=1
N#C/C(=C/c1ccc(O)c(O)c1)c1nc2ccccc2[nH]1 | x | x | -1.4 | 2 | x
Cc1ccc(-n2nnnc2-c2cnn(-c3cccc(F)c3)c2C(F)(F)F)cc1 | -18 | 0% | 7.9 | -6 | 12
CCn1c(SCC(N)=O)nc2cc(S(=O)(=O)N3CCOCC3)ccc21 | x | -4% | 2.1 | -3 | 0
CN(CCOc1ccccc1)C(=O)CCc1nc2sc3c(c2c(=O)[nH]1)CCCC3 | x | x | 0.0 | 25 | x
COc1cccc(NC(=S)Nc2ccc(F)cc2)c1 | x | x | 0.6 | 3 | x
Cc1ccc(CNC(=O)CCn2cc(-c3ccc(C)cc3)nc2-c2ccncc2)cc1 | x | x | -1.9 | 4 | x
COCCN1CN(S(=O)(=O)c2ccccc2)c2nc3ccccc3nc21 | -34 | 6% | -4.6 | -12 | -4
CC(C)CSc1ncnc2c1oc1nc3c(cc12)COC(C)(C)C3 | 25 | x | -0.5 | 52 | -32

Retrieved by compound from the entries so far:
SMILES | YopH inh | Mtb growth | RecA intein inh | Mtb bLac sens | Arbovirus anti | others
Cc1ccc(CNC(=O)CCn2cc(-c3ccc(C)cc3)nc2-c2ccncc2)cc1 | x | x | -1.9 | 4 | x
CC(C)CSc1ncnc2c1oc1nc3c(cc12)COC(C)(C)C3 | 25 | x | -0.5 | 52 | -32
COc1cccc(NC(=S)Nc2ccc(F)cc2)c1 | x | x | 0.6 | 3 | x

(next part)
SMILES | YopH inh | Mtb growth | RecA intein inh | Mtb bLac sens | Arbovirus anti | others
C#CCOCCOCCOCCNc1nc(N2CCN(C(=O)Cn3cc(CC(C)O)nn3)CC2)nc(N2CCN(C(=O)Cn3cc(CC(C)O)nn3)CC2)n1 (centres undefined) | -25 | -10% | 1.5 | -3 | -4
O=C(COc1ccc(S(=O)(=O)N2CCCCC2)cc1)NCc1ccncc1 | 6 | -3% | 1.1 | -2 | 1
Cc1cc(-c2cc(C(=O)NC3CCCC3)on2)nc(NC2CCCC2)n1 | x | -4% | 0.4 | -6 | x
O=C(NC(=S)N1CCOCC1)C12CC3CCC(CC(C3)C1)C2 | 1 | -5% | -2.3 | -1 | -1
COc1ccc(OC)c(C2C(C#N)=C(N)Oc3c2c(C)nn3-c2cccc(Cl)c2)c1 (centres undefined) | -16 | -6% | 37* | 10 | 4
CC(NC(=O)C1CCN(S(=O)(=O)c2ccc3nc4c(c(C(=O)O)c3c2)CCCC4)CC1)c1ccccc1 (centres undefined) | x | x | -2.1 | -9 | x
CC1CCC/C(=N/Nc2ccc([N+](=O)[O-])cc2[N+](=O)[O-])C1 (centres undefined) | -11 | 3% | 5.0 | 57 | -1
CCCc1nc2cc(CC(=O)OC)ccc2o1 | 14 | -5% | -1.0 | 7 | -3
COC(=O)c1oc2ccccc2c1NC(=O)/C=C/C(=O)O | x | -1% | 2.3 | 0 | 0
Cc1ccc(-c2nc3cc(C)ccc3o2)cc1 | -7 | -4% | 1.5 | -5 | -1
O=C(O)c1ccc(N/N=C/c2cc3c(cc2[N+](=O)[O-])OCO3)cc1 | x | 7% | 5.4 | 18 | 1
Cc1ccccc1C(=O)Nc1c(-c2cccs2)c(=O)c2ccccc2n1C | x | -4% | -1.6 | 3 | x
O=C1OCCC1S(=O)(=O)c1ccc2ccccc2c1 (centres undefined) | -41 | -13% | -1.0 | 2 | -1
Cc1nn(Cc2ccc(Cl)cc2)c(C)c1NC(=O)CSc1n[nH]c(C)c1[N+](=O)[O-] | -24 | 6% | -0.8 | -2 | -13
O=C(CN1C(=O)C2(OCCO2)c2ccccc21)c1ccc(Cl)cc1 | -9 | 4% | 0.2 | 23 | 5
O=C(NCC1CCCO1)c1cc(-c2ccccc2)on1 (centres undefined) | -25 | -9% | 1.9 | 0 | -11
O=C(Nc1ccccc1)/C(=C/c1ccc([N+](=O)[O-])cc1)NC(=O)c1ccccc1 | -14 | 1% | -2.8 | 9 | 1
Cc1ccc(Cl)cc1NC(=S)N(C)N | x | 14% | x | -6 | x
CCc1nn(CC(=O)NCc2ccccc2Cl)c(=O)c2cccn12 | x | x | -1.7 | 1 | x
Oc1ccc(Br)cc1/C=N/Nc1nc(N2CCCCC2)nc(N2CCOCC2)n1 | x | 2% | 0.3 | 1 | -5
CCCCOC(=O)C1=C(C)NC(=O)NC1c1cc2c(cc1Br)OCO2 (centres undefined) | x | x | -0.5 | 0 | x
COc1ccc(CCNC(=O)Nc2ccc3c(c2)OCO3)cc1OC | x | -10% | 0.2 | -7 | -8
COc1cccc(N=Nc2c(N)[nH][nH]c2=O)c1 | -14 | 0% | 0.3 | -3 | -9
Cc1cccc(-c2c(NC(=O)c3ccco3)oc3c(C)cccc3c2=O)c1 | x | x | -3.8 | -10 | x
Cn1ccsc1=NC(=O)c1ccc(Cl)c([N+](=O)[O-])c1 | x | x | -1.3 | -4 | x
OC(COc1ccc(Cl)cc1)CN1C2=NCCCN2c2ccccc21 (centres undefined) | -33 | 2% | 4.6 | 5 | -32
CCc1ccccc1NC(=O)CSc1nnc([C@@H](N)Cc2ccccc2)o1 | -21 | x | x | -4 | 7

Only part of the results is shown, so the mix of outcomes need not match the whole.
